UUG fidelity: modulators of yeast start codon fidelity, primary screen, whole organism, S. cerevisiae, single point, plate reader | S. cerevisiae UUG-firefly luciferase reporter, luminescence/redox ratio | activity score, % at 18.7 µM | 0.13% of 350,000 active | AID 602363, 2012;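 active = replicate mean at a twofold rise or more, about +100% in these data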;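 note: firefly luciferase made from a UUG start codon reports start codon fidelity; reporter light over untreated wells divided by growth signal over untreated wells; some hits fall short of that in this replicate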
The depositor's hits bear a star. A portion of the library; the hit share may differ from the screen's.

For Cc1noc(C)c1NC(=O)N(C)C[C@H]1Oc2c(NC(=O)c3nc4ccccc4s3)cccc2C(=O)N([C@@H](C)CO)C[C@@H]1C the results were UUG fidelity 5.
Screening COc1ccc(NC(=O)N2C[C@H]3[C@@H](c4ccccc42)[C@@H](CO)N3C(=O)C2CCCC2)cc1 returned UUG fidelity 0.
Screening O=C(c1cccc(F)c1)N1CCCCN2[C@H](C1)[C@@H](c1ccc(-c3cccnc3)cc1)[C@@H]2CO returned UUG fidelity -7.
Screening CC(C)NC(=O)N1CCCCN2[C@H](CO)[C@@H](c3ccc(C#Cc4ccccc4)cc3)[C@@H]2C1 returned UUG fidelity -14.
COCC(=O)N1[C@@H]2CN(C(=O)c3ccncc3)c3ccccc3[C@@H]2[C@@H]1CO was read as UUG fidelity -17.
C[C@H]1CN([C@@H](C)CO)C(=O)c2cc(NS(=O)(=O)c3cn(C)cn3)ccc2O[C@H]1CN(C)Cc1ccc(Oc2ccccc2)cc1 was read as UUG fidelity -12.
Screening C[C@@H]1CN([C@@H](C)CO)C(=O)c2cc(N(C)C)ccc2O[C@H]1CN(C)S(=O)(=O)c1ccc(F)cc1 returned UUG fidelity -5.
For C[C@H]1CN([C@@H](C)CO)C(=O)CCCn2cc(nn2)CO[C@H]1CN(C)S(=O)(=O)c1cccs1 the results were UUG fidelity -12.
For CO[C@H]1CN(C)C(=O)c2ccc(NS(C)(=O)=O)cc2OC[C@H](C)N(C(=O)CC2CC2)C[C@@H]1C the results were UUG fidelity -15.
`COc1ccc(S(=O)(=O)N(C)C[C@H]2OCc3ccccc3-c3c(n(C)c4ccccc34)C(=O)N([C@@H](C)CO)C[C@H]2C)cc1` gave UUG fidelity -1.
Screening CO[C@H]1CN(C)C(=O)c2ccc(NS(=O)(=O)c3ccc(-c4ccccc4)cc3)cc2OC[C@@H](C)NC[C@H]1C returned UUG fidelity -1.
For C[C@H]1CN([C@@H](C)CO)C(=O)Cc2cc(NC(=O)Nc3ccccc3)ccc2O[C@@H]1CN(C)S(C)(=O)=O the results were UUG fidelity 6.
For O=C(NC1Cc2ccccc2C1)[C@H]1[C@H](CO)[C@H]2Cn3c(ccc(C4=CCCCC4)c3=O)[C@@H]1N2CC1CC1 the results were UUG fidelity 22.
For C[C@@H]1CN([C@@H](C)CO)C(=O)Cc2cc(NC(=O)C3CCCCC3)ccc2O[C@H]1CN(C)S(=O)(=O)c1ccc(F)cc1 the results were UUG fidelity 8.
C[C@H](CO)N1C[C@H](C)[C@H](CN(C)C(=O)NC2CCCCC2)Oc2ccc(NS(C)(=O)=O)cc2C1=O was read as UUG fidelity -16.
O=C(c1cccnc1)N1CCCCN2[C@H](CO)[C@@H](c3ccc(C#Cc4ccccn4)cc3)[C@H]2C1 was read as UUG fidelity -4.
COc1cccc(C#Cc2ccc3c(c2)[C@@H]2[C@@H](CCN2C(=O)c2ccccc2F)[C@@H](CO)N3)c1 was read as UUG fidelity -7.
`C/C=C/c1ccc([C@@H]2[C@H](CO)N(C(C)=O)[C@H]2CN(CC)C(=O)CN(C)C)cc1` gave UUG fidelity 1.
For CN(C)C(=O)c1cccc(-c2ccc3c(c2)[C@@H]2[C@@H](CCN2C(=O)c2ccccc2F)[C@H](CO)N3)c1 the results were UUG fidelity -2.
Screening Cc1noc(C)c1NC(=O)N(C)C[C@H]1Oc2ccc(NS(=O)(=O)c3ccc(F)cc3)cc2C(=O)N([C@@H](C)CO)C[C@@H]1C returned UUG fidelity 3.

Two entries drawn at random from those above:
Screening C[C@@H]1CN([C@@H](C)CO)C(=O)c2cc(N(C)C)ccc2O[C@H]1CN(C)S(=O)(=O)c1ccc(F)cc1 returned UUG fidelity -5.
For CO[C@H]1CN(C)C(=O)c2ccc(NS(C)(=O)=O)cc2OC[C@H](C)N(C(=O)CC2CC2)C[C@@H]1C the results were UUG fidelity -15.

Sorted by heavy-atom count (highest first): 3 of the compounds above
Screening CO[C@H]1CN(C)C(=O)c2ccc(NS(=O)(=O)c3ccc(-c4ccccc4)cc3)cc2OC[C@@H](C)NC[C@H]1C returned UUG fidelity -1.
For CO[C@H]1CN(C)C(=O)c2ccc(NS(C)(=O)=O)cc2OC[C@H](C)N(C(=O)CC2CC2)C[C@@H]1C the results were UUG fidelity -15.
Screening COc1ccc(NC(=O)N2C[C@H]3[C@@H](c4ccccc42)[C@@H](CO)N3C(=O)C2CCCC2)cc1 returned UUG fidelity 0.

Further compounds follow.
O=C(C1CCCCC1)N1CC[C@@H]2[C@@H](CO)Nc3ccc(Br)cc3[C@@H]21 was read as UUG fidelity -2.
Screening CO[C@H]1CN(C)C(=O)c2cc(NS(=O)(=O)CC(F)(F)F)ccc2OC[C@@H](C)N(C(=O)c2ccc3c(c2)OCO3)C[C@@H]1C returned UUG fidelity 4.
Screening C[C@@H]1CN([C@H](C)CO)C(=O)c2cc(NS(=O)(=O)c3cn(C)cn3)ccc2O[C@@H]1CN(C)C(=O)Nc1cccc2ccccc12 returned UUG fidelity 0.
`O=S(=O)(c1cccs1)N1CCCCN2[C@@H](CO)[C@H](c3ccc(Br)cc3)[C@@H]2C1` gave UUG fidelity 2.
For C[C@@H]1CN([C@H](C)CO)C(=O)c2cccc(NS(=O)(=O)c3cn(C)cn3)c2O[C@H]1CN(C)Cc1ccc(-c2ccccc2)cc1 the results were UUG fidelity 4.
For O=C(Nc1cccc(F)c1)N1C[C@@H]2[C@H](c3ccccc31)[C@@H](CO)N2C(=O)C1CCOCC1 the results were UUG fidelity 32.
For CC(C)NC(=O)N(C)C[C@H]1Oc2ccc(NC(=O)CCC(F)(F)F)cc2CC(=O)N([C@@H](C)CO)C[C@H]1C the results were UUG fidelity 2.
`CCNC(=O)C[C@H]1CC[C@@H]2[C@H](COC[C@H](O)CN2C(=O)Nc2c(C)noc2C)O1` gave UUG fidelity 5.
CO[C@H]1CN(C)C(=O)c2cc(NC(=O)Nc3ccccc3F)ccc2OC[C@@H](C)N(Cc2ccccc2C(=O)O)C[C@@H]1C was read as UUG fidelity 5.
`COc1ccc(S(=O)(=O)N(C)C[C@@H]2Oc3ccc(NC(=O)NC4CCCCC4)cc3C(=O)N([C@H](C)CO)C[C@@H]2C)cc1` gave UUG fidelity -7.
`C[C@@H]1CN([C@H](C)CO)C(=O)c2cc(NC(=O)Cn3cnnn3)ccc2O[C@@H]1CN(C)S(=O)(=O)c1cccs1` gave UUG fidelity -10.
C/C=C/c1ccc([C@H]2[C@@H](CO)N3CCCCN(S(=O)(=O)c4cccc(C)c4)C[C@H]23)cc1 was read as UUG fidelity 10.
COc1ccc(S(=O)(=O)N(C)C[C@H]2Oc3ccc(NC(=O)Cc4ccccc4)cc3CC(=O)N([C@@H](C)CO)C[C@H]2C)cc1 was read as UUG fidelity 2.
`COCC(=O)Nc1ccc2c(c1)C(=O)N(C)[C@@H]1CC[C@@H](CC(=O)NCC(F)(F)F)O[C@H]1CO2` gave UUG fidelity 6.
Screening C[C@@H]1CN([C@H](C)CO)C(=O)c2cccc(NC(=O)Nc3ccccc3)c2O[C@@H]1CN(C)Cc1ccc(C(=O)O)cc1 returned UUG fidelity 4.
Screening CCCNC(=O)Nc1ccc2c(c1)C(=O)N(C)C[C@@H](OC)[C@H](C)CN(C(=O)C1CCOCC1)[C@H](C)CO2 returned UUG fidelity 0.
Screening C[C@H](CO)N1C[C@H](C)[C@H](CN(C)C(=O)Nc2ccc3c(c2)OCO3)Oc2c(NC(=O)c3cnccn3)cccc2C1=O returned UUG fidelity 10.
`COCC(=O)N1C[C@H]2[C@@H](c3ccccc31)[C@@H](CO)N2C(=O)Nc1ccccc1F` gave UUG fidelity 4.
`C/C=C/c1ccc2c(c1)[C@@H]1[C@@H](CCN1C(=O)Cc1ccncc1)[C@@H](CO)N2C` gave UUG fidelity -2.
C[C@@H]1CN([C@H](C)CO)C(=O)c2cccc(NC(=O)Nc3ccccc3)c2O[C@@H]1CN(C)S(=O)(=O)c1ccc(Cl)cc1 was read as UUG fidelity 11.
Screening C[C@@H]1CN([C@H](C)CO)C(=O)Cc2cc(NS(=O)(=O)c3ccccc3)ccc2O[C@H]1CN(C)Cc1ccc(C(F)(F)F)cc1 returned UUG fidelity -7.
Screening CS(=O)(=O)Nc1ccc2c(c1)[C@@H]1C[C@@H](CC(=O)NCc3ccc(-c4ccccc4)cc3)O[C@H](CO)[C@@H]1O2 returned UUG fidelity 3.
Screening O=C(c1cccnc1)N1C[C@H]2[C@@H](c3ccccc31)[C@H](CO)N2C(=O)C1CC1 returned UUG fidelity 101*.
Screening C[C@@H]1CN([C@@H](C)CO)C(=O)c2cc(NC(=O)Cn3cnnn3)ccc2O[C@@H]1CN(C)C(=O)NC1CCCCC1 returned UUG fidelity 3.
For O=C(O)C[C@@H]1C[C@H]2c3cc(NC(=O)Nc4ccc(F)cc4)ccc3O[C@H]2[C@@H](CO)O1 the results were UUG fidelity -10.
Screening C[C@H]1CN([C@@H](C)CO)C(=O)Cc2cc(NS(=O)(=O)c3cn(C)cn3)ccc2O[C@H]1CN(C)C returned UUG fidelity -14.
For CCNC(=O)[C@@H]1[C@@H](CO)[C@@H]2Cn3c(ccc(/C=C/c4ccccc4)c3=O)[C@H]1N2C(=O)C1CCC1 the results were UUG fidelity 44.
`O=C(c1ccccc1F)N1C[C@@H]2[C@H](c3ccccc31)[C@@H](CO)N2C(=O)c1ccc(F)cc1` gave UUG fidelity 33.
`Cc1ccc(-c2ccc([C@@H]3[C@H](CO)N4CCCCN(S(=O)(=O)c5ccccc5C)C[C@@H]34)cc2)cc1` gave UUG fidelity 1.
`COc1ccc(NC(=O)Nc2ccc3c(c2)CC(=O)N([C@@H](C)CO)C[C@H](C)[C@H](CN(C)C(=O)Nc2ccccc2)O3)cc1` gave UUG fidelity -1.
Screening CO[C@@H]1CN(C)C(=O)c2cc(NC(=O)c3ccc(-c4ccccc4)cc3)ccc2OC[C@H](C)NC[C@@H]1C returned UUG fidelity 3.
For COc1ccc(NC(=O)Nc2cccc3c2O[C@H](CN(C)C(=O)Nc2ccc4c(c2)OCO4)[C@H](C)CN([C@@H](C)CO)C3=O)cc1 the results were UUG fidelity -14.
`Cc1ccccc1-c1ccc([C@H]2[C@H]3CN(S(C)(=O)=O)CCCCN3[C@H]2CO)cc1` gave UUG fidelity 3.
For C[C@H](CO)N1C[C@H](C)[C@@H](CN(C)C)Oc2ccc(NC(=O)Nc3ccc4c(c3)OCO4)cc2C1=O the results were UUG fidelity -11.
Screening COCC(=O)Nc1ccc2c(c1)C(=O)N(C)C[C@H](OC)[C@H](C)CN(Cc1cccc(F)c1)[C@H](C)CO2 returned UUG fidelity 17.
For N#Cc1cccc(-c2ccc([C@H]3[C@@H](CO)N4CCCCN(C(=O)Nc5cccc(F)c5)C[C@@H]34)cc2)c1 the results were UUG fidelity 0.
Screening CO[C@@H]1CN(C)C(=O)c2cc(NC(=O)c3cc(C)on3)ccc2OC[C@@H](C)N(S(=O)(=O)c2ccc(F)cc2)C[C@H]1C returned UUG fidelity -7.
Screening COc1ccccc1-c1ccc2c(c1)[C@H]1[C@H](CCN1C(=O)C1CCCCC1)[C@@H](CO)N2 returned UUG fidelity -13.
O=C(C[C@H]1CC[C@H]2[C@@H](COC[C@@H](O)CN2C(=O)c2ccncc2)O1)NCc1cc(F)cc(F)c1 was read as UUG fidelity 5.
`CCC(=O)N1C[C@@H](C)[C@@H](OC)CN(C)C(=O)c2ccc(NC(=O)c3cnccn3)cc2OC[C@@H]1C` gave UUG fidelity -5.

Among those listed so far, these contain a thiophene ring, fused or not:
For C[C@H]1CN([C@@H](C)CO)C(=O)CCCn2cc(nn2)CO[C@H]1CN(C)S(=O)(=O)c1cccs1 the results were UUG fidelity -12.
`O=S(=O)(c1cccs1)N1CCCCN2[C@@H](CO)[C@H](c3ccc(Br)cc3)[C@@H]2C1` gave UUG fidelity 2.
`C[C@@H]1CN([C@H](C)CO)C(=O)c2cc(NC(=O)Cn3cnnn3)ccc2O[C@@H]1CN(C)S(=O)(=O)c1cccs1` gave UUG fidelity -10.

The results go on:
Screening CCCNC(=O)C[C@@H]1C[C@H]2c3cc(NS(C)(=O)=O)ccc3O[C@H]2[C@H](CO)O1 returned UUG fidelity -6.
`N#Cc1ccc(-c2ccc3c(c2)[C@H]2[C@H](CCN2C(=O)c2ccc4c(c2)OCO4)[C@@H](CO)N3)cc1` gave UUG fidelity 7.
`CN(C)C(=O)c1cccc(-c2ccc([C@H]3[C@H]4CN(CC5CCOCC5)CCCCN4[C@H]3CO)cc2)c1` gave UUG fidelity 9.
COc1ccccc1C(=O)N1C[C@H]2[C@@H](c3ccccc31)[C@H](CO)N2C(=O)Nc1ccccc1 was read as UUG fidelity 16.
C[C@H]1CN([C@@H](C)CO)C(=O)c2cc(NS(C)(=O)=O)ccc2O[C@@H]1CN(C)C(=O)Nc1ccc(F)cc1 was read as UUG fidelity 10.
O=C(Nc1ccccc1F)N1CCCCN2[C@H](CO)[C@@H](c3ccc(-c4cccnc4)cc3)[C@H]2C1 was read as UUG fidelity -6.
Screening C[C@@H]1CN([C@H](C)CO)C(=O)c2cccc(NC(=O)Nc3ccccc3)c2O[C@H]1CN(C)C(=O)Nc1cccc2ccccc12 returned UUG fidelity 4.
For CCCC#Cc1ccc([C@H]2[C@H](CO)N3CCCCN(Cc4cccnc4)C[C@@H]23)cc1 the results were UUG fidelity 45.
For COc1ccc(CNC(=O)C[C@H]2C[C@@H]3c4cc(NC(=O)NC5CCCC5)ccc4O[C@@H]3[C@@H](CO)O2)cc1 the results were UUG fidelity 1.
Screening OC[C@@H]1[C@H](c2ccc(/C=C/c3ccccc3)cc2)[C@H]2CN(CCC(F)(F)F)CCCCN12 returned UUG fidelity -1.
Screening CO[C@@H]1CN(C)C(=O)c2ccc(NC(=O)C3CCOCC3)cc2OC[C@H](C)N(CC2CC2)C[C@@H]1C returned UUG fidelity -11.
`Cc1ccccc1S(=O)(=O)N1CCCCN2[C@H](CO)[C@H](c3ccc(-c4cccnc4)cc3)[C@H]2C1` gave UUG fidelity -10.

Screening data (PubChem BioAssay)
